Bioassay records (PubChem)
Bead autofluor: compound fluorescence in toxin protease inhibitor counterscreen. compound autofluorescence counterscreen, microsphere flow cytometry; hits give high values. fluorescence intensity (concentration not given with the values). actives 3.1% (n = 360,000). AID 624483;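 active means at least 3 SD above the mean of all compounds, about 16000 in these data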;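 further: 100 nL of 1 mM stock went into each well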
An asterisk follows results filed as active. Not all compounds are listed; rates above refer to the full screens.

SMILES	Bead autofluor
C[C@H]1COc2cccc(N3CCN(Cc4ccccc4F)CC3)c2S(=O)(=O)N1	5437
NC(c1csc(Nc2cc(Oc3ccccc3)ncn2)n1)C1CCCCC1 (centres undefined)	3817
Cc1cc2nc(-c3nnnn3C3CCCCC3)c(=O)[nH]c2cc1C	5383
COc1ccc(CNC(=O)/C=C/[C@H]2O[C@@H](n3cc(C)c(=O)[nH]c3=O)C[C@@H]2O)cc1	4302
CC(=O)NC(c1ccco1)c1cc(Cl)c2cccnc2c1O (centres undefined)	3577
CC(=O)NC(C)(c1ccccc1)c1nc(-c2cc(F)cc(F)c2)cs1 (centres undefined)	3386
OCCN1CCN(c2ncnc3c2ncn3[C@H]2CN(Cc3ccco3)C[C@@H](CO)O2)CC1	2941
CN(C)c1ccc(CC(=O)N2CCCC(c3cc(C(=O)Nc4ccc5c(c4)OCO5)no3)C2)cc1 (centres undefined)	3498
Cc1nccn1CCC(=O)NC1CCCc2c1cnn2-c1ccc(C(C)(C)C)cc1 (centres undefined)	3751
CC(OCC(O)CN1CCN(S(=O)(=O)c2ccc(Cl)cc2)CC1)c1ccc(Cl)cc1 (centres undefined)	2828
CCCc1nc2ccc(C(=O)OC)cn2c1Cc1cccc(F)c1	4522
CC1(C(=O)NCc2ccccc2)CCC(=O)N1CCc1c[nH]c2ccccc12 (centres undefined)	5894
CCNC(=O)C1(C)CCN(C(=O)CCc2ccccc2)C1 (centres undefined)	2936
COc1cccc(C(O)c2nc(-c3cc(F)cc(F)c3)cs2)c1 (centres undefined)	3100
O=C(COC(=O)Cc1c[nH]c2ccccc12)Nc1ccc(Cl)cc1	3701
CC(=O)Nc1cccc(-c2csc(C(C)(NC(C)=O)c3ccccc3)n2)c1 (centres undefined)	2922
COc1ccccc1CCC(=O)Nc1ccc(S(=O)(=O)Nc2ncccn2)cc1	7758
COc1ccc(C(=O)OCc2cc(=O)oc3c(C)c(C)ccc23)cc1S(=O)(=O)N1CCOCC1	4132
COCCn1c(=S)[nH]c2cc(C(=O)NCc3ccccc3)ccc2c1=O	3441
O=C(c1ccco1)N1CCC2CC1c1c(Cl)cccc12 (centres undefined)	3760
O=C(NCc1ccccc1)[C@@H]1CCCN1C(=O)[C@@H]1CCCN1C(=O)c1ccc(Cl)cc1Cl	6487
CCC[C@H]1CN(c2ccc(Br)cc2)C(=O)[C@@H]1CC(=O)Nc1ccccc1	3636
O=C(OCc1cn([C@H]2CN(C(=O)c3cccs3)[C@@H](c3ccc(Cl)cc3)C[C@@H]2O)nn1)c1ccccc1	3839
CCOC(=O)[C@]12CCC=C1N(Cc1cccc3ccccc13)C(=O)[C@H](CC(=O)NCCCN1CCCC1=O)C2	4081

Random excerpt: 2 compounds from above
SMILES	Bead autofluor
CC(=O)Nc1cccc(-c2csc(C(C)(NC(C)=O)c3ccccc3)n2)c1 (centres undefined)	2922
O=C(c1ccco1)N1CCC2CC1c1c(Cl)cccc12 (centres undefined)	3760

The listing picks up, starting 3 compounds before the break.
SMILES	Bead autofluor
CCC[C@H]1CN(c2ccc(Br)cc2)C(=O)[C@@H]1CC(=O)Nc1ccccc1	3636
O=C(OCc1cn([C@H]2CN(C(=O)c3cccs3)[C@@H](c3ccc(Cl)cc3)C[C@@H]2O)nn1)c1ccccc1	3839
CCOC(=O)[C@]12CCC=C1N(Cc1cccc3ccccc13)C(=O)[C@H](CC(=O)NCCCN1CCCC1=O)C2	4081
CC(C)[C@H](N)C(=O)N[C@H]1CCC2C3CC=C4C[C@@H](O)CC[C@]4(C)C3CC[C@@]21C (some centres undefined)	3885
COc1cc(N)ccc1Nc1c2ccccc2nc2ccccc12	4095
O=C(COC(=O)c1c(F)cccc1F)Nc1cccc(S(=O)(=O)N2CCCCC2)c1	3940
COc1ccc(-c2nc3ccc(C)cn3c2Cc2ccc(C)cc2)cc1OC	6488
Oc1ccccc1C1=NC(c2ccccc2)NC(c2ccccc2)C1 (centres undefined)	3769
C[C@@H]1CCCCO[C@H](CN(C)Cc2ccc(Cl)c(Cl)c2)[C@H](C)CN([C@@H](C)CO)C(=O)c2cc(NC(=O)Nc3ccc(F)cc3)ccc2O1	3202
CSc1ccc(CN2CCC(C)(Oc3ccccc3)C2)cc1 (centres undefined)	3852
COCCNC(=O)C1(C)Cc2c(-c3cccc(NC(C)=O)c3)ccnc2O1 (centres undefined)	2835
O=C(NCc1ccccc1)c1ccc(-c2ccc(F)c(F)c2)c2ccoc12	4491
Cn1cc(-c2coc3c(C(=O)NCc4cccc(Cl)c4)cccc23)cn1	3352
Cc1ccc2nc(C3CCCCC3)c(CC(C)(C)C)n2c1	4288
CC(=O)Nc1cccc(-c2cc(NC(C)=O)c3ncc(-c4cccc(C(F)(F)F)c4)n3c2)c1	4033
CCCc1nc2ccc(C)cn2c1Cc1ccccc1C(F)(F)F	6409
CC1(C)OC(=O)C2=C(CC(CCc3ccccc3)OC2c2ccccc2)O1 (centres undefined)	3734
CC(=O)Nc1ccc(-c2ccnc3c2CC(C)(C(=O)Nc2ccc(C(C)C)cc2)O3)cc1 (centres undefined)	3879
CCc1nc2ccc(C(=O)Nc3ccc4c(c3)OCC(=O)N4)cn2c1N(C)Cc1nccn1C	3854
O=C1OC(c2ccccc2)(c2ccccc2)c2ccsc21	3494
CC(C)CSCC1OC(n2cnc3c(N)nccc32)C(O)C1O (centres undefined)	2869
CCCN(C(=O)COC(=O)CCC(=O)c1ccccc1)c1c(N)n(Cc2ccccc2)c(=O)[nH]c1=O	2969
C[C@H]1CN([C@@H](C)CO)C(=O)CCCn2cc(nn2)CO[C@@H]1CN(C)S(C)(=O)=O	2948
O=C1c2ccccc2C(c2nnnn2-c2ccc3c(c2)OCCO3)N1Cc1ccco1 (centres undefined)	4397
COc1cccc(S(=O)(=O)N(C)C[C@H]2OCc3cnnn3CCCC(=O)N([C@H](C)CO)C[C@H]2C)c1	3707
COc1ccccc1CC1CC(=O)N(c2ccc([N+](=O)[O-])cc2)C1=O (centres undefined)	2805
O=C(COc1ccccc1CNC[C@H]1O[C@@H](n2ccc(=O)[nH]c2=O)[C@H](O)[C@@H]1O)N1CCCCC1	5536

Arranged by heavy-atom count (high to low): part of the list above
SMILES	Bead autofluor
COc1cccc(S(=O)(=O)N(C)C[C@H]2OCc3cnnn3CCCC(=O)N([C@H](C)CO)C[C@H]2C)c1	3707
CC(=O)Nc1ccc(-c2ccnc3c2CC(C)(C(=O)Nc2ccc(C(C)C)cc2)O3)cc1 (centres undefined)	3879
CC(C)CSCC1OC(n2cnc3c(N)nccc32)C(O)C1O (centres undefined)	2869

Later entries.
SMILES	Bead autofluor
COc1ccc(C2CC(=O)C=C3c4ccc(OC)cc4CCC32)cc1 (centres undefined)	3027
CCC/C=C/c1ccc(CN2C(CC(C)C)C(=O)N(Cc3cn(CCC4OCCCO4)nn3)CCS2(=O)=O)cc1 (centres undefined)	3304
COc1ccc(OC)c(NC(=O)C2(C)CCN2C(=O)Cc2ccccc2)c1 (centres undefined)	3707
O=C(Nc1ccc(F)c(Cl)c1)c1ccc2sc([C@@H]3O[C@H](CO)[C@H](O)[C@H](O)[C@H]3O)nc2c1	3803
N/C(Cc1ccc(Cl)cc1)=N\OC(=O)CCc1ccccc1	3397
O=C1NC[C@@H](CCCCN2C[C@H](Cc3ccccc3)N(CC3CCCCC3)C(=O)C2=O)N(CCc2ccccc2)C1=O	4085
COc1cc(CNc2ncnc3c2ncn3[C@H]2CN(Cc3ccccc3)C[C@@H](COC(C)=O)O2)cc(OC)c1OC	2987
CCOC(=O)C1=CCC(c2cccc(C)c2)N(S(=O)(=O)c2ccc(C)cc2)C1 (centres undefined)	5900
CCN(CC)c1ncnc2c1ncn2[C@H]1CN(Cc2ccc(F)cc2)C[C@@H](CO)O1	3428
CC(=O)N1CCCC(C)(C(=O)Nc2ccc3nc(C)ccc3c2)C1 (centres undefined)	3780
CC(C)C1C(=O)N(Cc2cn(CC3CCCCC3)nn2)CCS(=O)(=O)N1Cc1ccc(-c2ccc(F)nc2)cc1 (centres undefined)	3560
CC1(C(=O)Nc2cccc(C(F)(F)F)c2)Cc2c(-c3ccc4c(c3)OCO4)ccnc2O1 (centres undefined)	4103
C[C@@H]1CN([C@H](C)CO)C(=O)CCCn2nncc2CO[C@@H]1CN(C)S(=O)(=O)c1cccc(C#N)c1	3561
COc1ccc(-c2ccc(N3C(c4ccsc4)=Cc4ccc(F)cc4C3c3c[nH]c4ccccc34)cc2)cc1 (centres undefined)	5847
COc1ccccc1CN(C)C[C@H]1OCc2cnnn2CCCC(=O)N([C@H](C)CO)C[C@@H]1C	2795
NC(Cc1ccc(F)cc1)c1csc(Nc2nccc(C(F)(F)F)n2)n1 (centres undefined)	3978
O=C1NCN(c2ccccc2)C12CCN(C(c1cccc3ccccc13)c1nnnn1Cc1ccccc1)CC2 (centres undefined)	6401
COc1ccc(-c2cc(NC=O)c3ncc(-c4cccc(C(F)(F)F)c4)n3c2)c(OC)c1	3543
COCCn1c(N)c(N(Cc2ccccc2)C(=O)C(C)Oc2ccc(Br)cc2)c(=O)[nH]c1=O (centres undefined)	3878
COc1ccc(CN(CCCn2cnc3c(OC)ncnc32)CCCn2cnc3c(OC)ncnc32)cc1	3759
O=C(NNS(=O)(=O)c1c(F)cc(F)c(Cl)c1F)C12CC3CC(CC(C3)C1)C2	4000
CC1=C(C(=O)N(C(C)C)C(C)C)CC(CC(=O)NCc2cccc3ccccc23)C(=O)N1Cc1ccc(C(C)(C)C)cc1 (centres undefined)	4911
CCC[C@@H]1C=C(C(=O)OCC)[C@H](c2ccccc2)N1S(=O)(=O)c1ccc(C)cc1	4018
CC(C)C[C@H]1CNC(=S)N1C[C@H]1CCCN1C[C@H](Cc1ccc(O)cc1)N1C[C@H](Cc2ccccc2)N(CCc2ccccc2)C1=S	5921

Laid out differently: 3 of the compounds above.
smiles,Bead autofluor
COc1ccc(OC)c(NC(=O)C2(C)CCN2C(=O)Cc2ccccc2)c1 (centres undefined),3707
O=C(Nc1ccc(F)c(Cl)c1)c1ccc2sc([C@@H]3O[C@H](CO)[C@H](O)[C@H](O)[C@H]3O)nc2c1,3803
N/C(Cc1ccc(Cl)cc1)=N\OC(=O)CCc1ccccc1,3397

Next section.
SMILES	Bead autofluor
Cc1cc(C(=O)CN2C(=O)NC(C)(c3ccc(F)c(F)c3)C2=O)c(C)n1C1CC1 (centres undefined)	3995
CN(Cc1ccccc1)C(=O)C(=O)c1c[nH]c2ccccc12	3687
C[C@@H]1CN([C@H](C)CO)C(=O)c2c(c3ccccc3n2C)-c2ccccc2CO[C@H]1CN(C)Cc1ccc(C(F)(F)F)cc1	3735
Cn1ccc2c(-c3ccc(F)cc3)cc3c(c21)C1CCC3C1 (centres undefined)	5633
CCCOc1ccc(F)cc1-c1cc(C(=O)NCc2ccco2)[nH]n1	2847
O=C(Nc1nnc([C@H]2C[C@H](O)[C@@H](CO)O2)s1)C(c1ccccc1)c1ccccc1	3983
CN1C=Nc2c(ncn2C2CCC(CO)O2)C1O (centres undefined)	6255
C[C@@H]1CN([C@H](C)CO)S(=O)(=O)c2ccc(Br)cc2O[C@@H]1CN(C)C(=O)Nc1ccc(C(F)(F)F)cc1	2907
CC(=O)Nc1ccc(NC(=O)c2ccc3sc([C@H]4C[C@H](O)[C@@H](CO)O4)nc3c2)cc1	3045
CCCCNc1c(-c2ccccn2)nc2nc(C)cc(C)n12	5331
Cc1ccccc1-c1csc(C(O)c2cccc(Cl)c2)n1 (centres undefined)	3550
CC1(C(=O)NS(=O)(=O)c2ccc(Cl)s2)CCN1C(=O)c1ccccc1CCc1ccccc1 (centres undefined)	2918
CN1OC[C@@H]2CN(S(=O)(=O)c3cccc4ccccc34)[C@H](c3ccc(-c4ccccc4)cc3)C[C@@H]21	2928
Cc1ccc(Cc2c(-c3ccc(C#N)cc3)nc3c4ccccc4ccn23)cc1	6083
Cc1ccc(NC(=O)CSCC(=O)N(C)Cc2c(F)cccc2Cl)cc1	3986
O=c1[nH]cc(S(=O)(=O)N2CCN(c3ccc(F)cc3)CC2)c(=O)[nH]1	3393
O=C(Nc1ccn(CCCN2CCN(c3ccccc3)CC2)c(=O)n1)OCc1ccccc1	3519
N#Cc1ccccc1C[C@H](N)C(=O)NC[C@H]1O[C@@H](n2ccc(N)nc2=O)[C@H](O)[C@@H]1O	2988
COc1cccc(OC)c1OCCN1CCC(C(=O)NC(c2ccccc2)c2ncccc2C)CC1 (centres undefined)	3565
CC(C)Oc1cccc(NC(=O)C2(C)CCN2C(C)C)c1 (centres undefined)	3007
CCOCc1nc2nc(Cl)c(Cl)nc2[nH]1	3455
CCN(CC)C(=O)C1=C(C)N(CCC2=CCCCC2)C(=O)C(CC(=O)NCCCN(C)C)C1 (centres undefined)	3951
CC(=O)OC1C=CN(C(C)=O)C(SC(C)(C)C)C1(C)O (centres undefined)	2976
CCCNC(=O)c1cc(C2CCCN(S(=O)(=O)c3cccs3)C2)on1 (centres undefined)	3569
O=C(CC1CC1)Nc1ccc2c(c1)[C@@H]1C[C@H](CC(=O)NC3CCCC3)O[C@@H](CO)[C@@H]1O2	3015
CC(C)Nc1ncnc2c1ncn2[C@H]1CN(C2CCCC2)C[C@@H](CO)O1	4089
CCNC(=O)C1(C)CCCN(C(=O)c2csc3ccccc23)C1 (centres undefined)	3825
COc1ccc(-c2coc3c(C(=O)NCc4ccc(C(F)(F)F)cc4)cccc23)c(C)c1	4007
CCOc1ccc(CCN2C(=O)C(=O)N([C@@H](Cc3ccccc3)CN3CCC[C@H]3CN3C(=O)C(=O)NC[C@@H]3Cc3ccccc3)C[C@@H]2Cc2ccccc2)cc1	6074
COc1ccc(CNC(=O)c2cccc3c(-c4cnn(C)c4)coc23)cc1OC	3827
CCc1nc2c(OCc3ccc(F)c(F)c3)cccn2c1N(C)C(=O)c1cccs1	4039
CSc1nc2nc(Cl)c(Cl)nc2[nH]1	4053
Cc1cccc(COC[C@H](Cc2ccccc2)N2CCN(C(=O)c3ccc(C(F)(F)F)cc3)CCC2=O)c1	5319
c1ccc2[nH]c(CCCCCc3nc4ccccc4[nH]3)nc2c1	4423
CN(CCCn1ccc(NC(=O)OCc2ccccc2)nc1=O)Cc1ccco1	3439
CC1(C)OC(=O)C2=C(C[C@@H](C3CCCCC3)O[C@@H]2c2ccc(Cl)cc2)O1	6268
